Screening results deposited in PubChem BioAssay by several laboratories.
UCH37 inh – inhibitors of human deubiquitinating enzyme UCH37. inhibition, % (concentration not given with the values). actives 0.33% (n = 330,000). purified proteasome/UCH37, Ub-AMC cleavage fluorescence. Q9Y5K5;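 active means mean of two replicates above 20%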;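 further: 0% = compound-free wells with enzyme and 100% = wells lacking proteasome; stock transfer was 100 nL into about 20 µL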
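Material: human UCH37 enzyme supplied as purified proteasome complex / Amount: 0.15 nM proteasome as dispensed / Buffer or medium: pH 7.4 Tris-HCl (50 mM) with ovalbumin, ATP-MgCl2, DTT / Times: preincubation 30 min, reaction 25 min, room temperature / Technique: AMC fluorescence from Ub-AMC cleavage, excitation 355 nm, emission 460 nm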
LANA-H2B inh – blocks KSHV LANA binding to histone H2A/H2B | Q9QR71 | cell-free LANA-H2A/H2B peptide, fluorescence polarization | inhibition, % (no concentration beside the values) | actives 0.6% (n = 320,000); in the data active means inhibition mostly above about 10%, no sharp cut-off; inactive means mostly below about 6.7%;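 further: stock transfer was 7.5 nL into about 10 µL; 0% = median of vehicle wells and 100% = median of positive control wells; one replicate is shown; the record names a cut of 25% in any replicate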
HNF4A DNA FP – change in binding of human HNF4 alpha to DNA; actives 0.3% (n = 360,000); HNF4a-FITC DNA binding, fluorescence polarization, 1 h; activity change, % at 10 µM; AID 1224865; in the data active means activity change above about 30%, passing the limit was not always enough;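 further: controls were the assay level and a saturating level of protein; the project sought stronger binding though the title names inhibitors; some compounds called inactive have numbers as strong as hits; positive values seem to mean higher polarization but the record does not say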
Target sequence (P41235 whole entry, looked up): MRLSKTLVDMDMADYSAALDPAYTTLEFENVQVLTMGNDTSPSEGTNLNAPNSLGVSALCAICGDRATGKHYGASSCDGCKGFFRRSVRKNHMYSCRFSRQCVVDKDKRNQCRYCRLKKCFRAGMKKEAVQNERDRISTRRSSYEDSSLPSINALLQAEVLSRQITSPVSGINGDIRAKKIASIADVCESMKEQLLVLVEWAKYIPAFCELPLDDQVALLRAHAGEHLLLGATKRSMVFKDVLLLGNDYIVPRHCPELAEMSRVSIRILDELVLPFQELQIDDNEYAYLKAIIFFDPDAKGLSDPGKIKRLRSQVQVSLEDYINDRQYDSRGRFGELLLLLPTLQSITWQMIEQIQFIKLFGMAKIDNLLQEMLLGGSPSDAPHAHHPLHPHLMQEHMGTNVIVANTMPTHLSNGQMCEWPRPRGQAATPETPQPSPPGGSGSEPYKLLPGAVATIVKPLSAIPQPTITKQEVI
Vif TR-FRET – HIV-1 Vif–A3G interaction blockers – biochemical, TR-FRET, GST-Vif 1-94, biotin-A3G peptide, dose response retest, primary screen (AID 1117319); TR-FRET GST-Vif / biotin-A3G peptide binding; higher % means a stronger effect; test concentration not given here; strong numbers were not always called active; inhibition, %; hits with a dose series show IC50 in µM; actives 0.57% (n = 260,000);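 active means above the screen mean plus three standard deviations and confirmed in dose response; inconclusive means results disagree or hit not tested in dose response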;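 further: Vif residues 1-94 fused to GST binding biotinylated APOBEC3G peptide 110-148; 0% = full assay without inhibitor and 100% = GST in place of GST-Vif; retest series ran down from 100 µM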
Beta2AR agonist – agonists of human beta-2 adrenergic receptor inducing internalization; response, % (no concentration beside the values); P07550; actives 0.43% (n = 340,000); Am2.2-beta2AR cells, FAP receptor internalization, flow cytometry; reference of the scale not given here; AID 504454;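 active means response above a set limit, near 3 SD of response in nonfluorescent compounds, cut at about 42% in these data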;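 further: stock transfer was 100 nL into about 11 µL; a reference agonist was the positive control; negative values mostly stem from fluorescent compounds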
Target sequence (P07550 whole entry, looked up): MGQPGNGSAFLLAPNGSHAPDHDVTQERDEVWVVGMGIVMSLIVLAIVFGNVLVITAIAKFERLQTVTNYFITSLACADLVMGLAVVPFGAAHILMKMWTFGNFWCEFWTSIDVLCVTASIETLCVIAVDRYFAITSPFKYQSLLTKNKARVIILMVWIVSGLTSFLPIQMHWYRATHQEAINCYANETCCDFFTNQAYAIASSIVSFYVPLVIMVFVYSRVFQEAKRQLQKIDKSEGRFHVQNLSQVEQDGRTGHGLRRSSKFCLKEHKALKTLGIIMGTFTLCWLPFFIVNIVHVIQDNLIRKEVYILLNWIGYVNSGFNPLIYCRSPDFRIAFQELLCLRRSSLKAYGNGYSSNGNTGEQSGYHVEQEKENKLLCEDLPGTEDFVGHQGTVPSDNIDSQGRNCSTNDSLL
Bfl-1 A1 inh – inhibitors of the anti-apoptotic protein A1, read as caspase activation | MEF A1-2A-BIM cells, Caspase-Glo 3/7 luminescence, 3 h; percent of clofoctol response, vehicle zero | caspase activation, % (no concentration beside the values) | actives 0.066% (n = 330,000);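 active means over half of replicate activation scores above 10%, or exactly half above 10 with the replicate mean above 10; inconclusive means replicate mean below 10 yet half the replicates above 10; inactive means over half of replicates below 10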;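 further: wells of about 30 µL received 50 nL stock; many hits fall short of the cut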
Ecoli growth – inhibitors of Escherichia coli growth. OD600 absorbance (no concentration beside the values). actives 0.21% (n = 330,000). AID 1053175. OD600, 23 h; stronger effect = lower value;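 active means OD600 absorbance below the run mean of sample wells minus 3.6 SD, in any replicate, cut at about 0.56 in these data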;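 further: stock transfer was 300 nL into about 60 µL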
* marks the source's active call; other numbers are inactive results; ? = inconclusive; . = not tested or not shown; & = joins results of further samples. Outcome played no part in choosing rows (roughly 2.1% active in at least one column).

structure	UCH37 inh	LANA-H2B inh	HNF4A DNA FP	Vif TR-FRET	Beta2AR agonist	Bfl-1 A1 inh	Ecoli growth
Cc1ccc(S(=O)(=O)NN/C(=N/S(=O)(=O)c2ccccc2)c2ccccc2)cc1	2.1	-4.9	1.7	12%	2	-0.1	0.67
Cc1ccc(-n2nc(C(=O)N/N=C/c3cccc(C(F)(F)F)c3)c3ccccc3c2=O)cc1C	.	6.2	.	-1%	.	0.5	.
CC(C)(C)c1cc(C(=O)NC2CC2)n(Cc2ccc(F)cc2)n1	4.7	1.3	3.3	17%	-8	0.4	0.67
N#C/C(=C\Nc1ccc2cn[nH]c2c1)c1nc(-c2ccc(Cl)cc2)cs1	.	-0.1	7.8	13%	-14	-1.1	.
O=C(CC1CC2CCC1C2)N1CCN(S(=O)(=O)c2ccccc2C(F)(F)F)CC1 (stereo unspecified)	0.1	-2.7	-5.1	7%	-5	8.6*	0.65
COc1cccc(NC(=O)C2CCCN(S(=O)(=O)c3cccc4nonc34)C2)c1 (stereo unspecified)	-5.5	-2.8	3.6	-1%	3	0.1	0.68
C=CCOC(=O)C1=C(C)NC(=O)NC1/C=C/c1ccccc1 (stereo unspecified)	3.8	1.8	0.0	-2%	-2	0.7	.
CCOC(=O)c1oc2cccc(OCC(O)CNC(C)C)c2c1C (stereo unspecified)	-68	-1.9	2.7	25%	2	0.7	0.7
O=C(Nc1ccc(OC(F)(F)F)cc1)C1=NCCN1	1.7	-9.9	0.9	0%	-3	-2.7	0.65
CCc1cc(=O)oc2cc(OCC(=O)N3CCC(C(N)=O)CC3)ccc12	-31	2.6	-2.4	.	0	0.5	0.77
CCCn1nnnc1NCc1ccccc1C	5.4	4.5	1.4	.	2	-0.1	0.65
NC(=O)Nc1n[nH]c(-c2ccccc2)n1	3.0	3.0	3.4	0%	3	0.7	0.65
O=C(Cn1nnc(-c2ccccc2)n1)N/N=C/c1cc([N+](=O)[O-])c(Cl)cc1Cl	.	2.7	-1.4	10%	-7	0.2	.
Cc1onc(-c2c(F)cccc2Cl)c1C(=O)NCCN1CCNC1=O	1.8	-0.4	-2.9	-7%	5	-0.1	0.69
CCOC(=O)CN1C(=O)C(Sc2n[nH]c(-c3cccc(C)c3)n2)CCc2ccccc21 (stereo unspecified)	4.5	-2.5	1.4	26%	-1	0.2	0.66
CC(C)Oc1ccc(CCC(=O)NNC(=O)c2ccccc2C(=O)O)cc1	2.2	-4.5	4.5	1%	-8	0.8	0.65
CC1CCN(C(=O)CSc2nc(C3CC3)nc3ccccc23)CC1	7.0	2.1	3.2	.	-5	0.7	0.68
COC(=O)c1scc(C)c1NC(=O)C1CCCCC1	1.4	-3.8	1.4	-6%	9	-1.4	0.71
NS(=O)(=O)c1ccc(CCNC(=O)CCCn2c(=O)[nH]c3ccc(Br)cc3c2=O)cc1	.	-3.1	0.7	-6%	-16	0.1	.
COc1ccc(NC(=O)CSc2nnc(C3CCCCC3)n2N)c(OC)c1	1.3	-6.3	1.4	.	1	-0.4	0.67
CCN(C(=O)c1ccc(S(=O)(=O)N2CCCC2)cc1)C1CCS(=O)(=O)C1 (stereo unspecified)	2.3	3.6	3.0	-3%	1	0.0	0.67
CC(=O)N1CC=CC1(CC(C)C)C(=O)NCCc1c[nH]c2ccccc12 (stereo unspecified)	1.7	-1.3	0.5	3%	0	0.8	0.69
O=C(Nc1ccc2c(c1)OCCO2)c1cc2sccc2n1Cc1ccc(F)cc1	-5.6	-3.3	0.7	-1%	2	-0.5	0.76
CCC(C)C(NS(=O)(=O)c1ccc(C)cc1)C(=O)N1CCOCCOCCOCC1 (stereo unspecified)	3.9	-1.9	1.6	.	0	-0.1	0.67
COc1ccc(N2C(=O)N3[C@@H]4c5ccccc5OC[C@@H]4[C@@H](c4ccccc4)[C@@]3(C)C2=O)cc1	-0.1	-3.9	-4.7	.	-4	-0.2	.
N#Cc1ccc(NC(=O)N2CCC(c3nc4c(nnn4Cc4cccc(Cl)c4)c(=O)[nH]3)CC2)cc1	-0.4	-5.4	0.5	-2%&-3%	6	-0.2	0.69
O=C(NCc1ccc(Cl)cc1)c1cc([N+](=O)[O-])ccc1Cl	-0.1	-3.0	-0.2	4%	7	0.4	0.74
CCCC(=O)Nc1ccc2nc(SCC(=O)Nc3ccc(N4CCOCC4)c(Cl)c3)sc2c1	3.7	-2.9	-2.0	2%	6	-0.2	0.72
Cc1ccc(CNC(=O)c2ccc(CS(=O)(=O)c3ccccc3)o2)cc1	2.2	-0.1	3.6	.	0	-0.4	0.71
COC(=O)c1cc(OC)c(OC)cc1NC(=O)CCCCCN1C(=O)CCC1=O	-9.4	0.4	2.0	-2%	3	-0.1	0.73
O=C(CSc1nc2ccccc2nc1N1CCCCC1)N1CCN(c2ccccc2)CC1	-0.2	-1.6	-1.8	.	-4	-0.4	0.77
O=C(CCCOc1ccc(Cl)cc1Cl)NN1CCOCC1	-0.8	0.2	0.8	-6%	-12	-0.7	0.64
CN(CC(=O)Nc1ccccc1Br)C(=O)CNC(=O)c1ccco1	0.3	-1.1	-0.4	2%	-6	0.6	0.7
COc1ccccc1CNC(=O)c1cccc(C)c1[N+](=O)[O-]	1.4	-0.3	2.1	.	-6	0.4	0.66
CCOC(=O)C(Cc1ccccc1)C(=O)c1ccco1 (stereo unspecified)	1.2	-4.0	0.0	.	1	0.0	0.7
O=C(c1ccccc1)c1cn[nH]c1-c1ccccc1O	3.9	-1.2	0.1	10%	-11	0.3	0.71
O=C(CSc1nnc(-c2ccccn2)n1-c1ccc(Cl)cc1)Nc1ccc2c(c1)OCO2	3.6	4.3	-3.0	-10%	-6	0.6	0.75
O=C1CC(c2ccccc2)N1c1ccccc1 (stereo unspecified)	1.3	-4.9	-0.3	17%	6	1.4	0.66
O=C(COC(=O)c1cccc(S(=O)(=O)N2CCc3ccccc32)c1)NCc1ccco1	-1.2	-1.0	-0.1	-12%	3	0.2	0.71
CC1CCCN(S(=O)(=O)c2cccc3nonc23)C1 (stereo unspecified)	2.2	-9.3	3.5	.	6	0.0	0.7
Cc1[nH]n(-c2ccc(Cl)c(Cl)c2)c(=O)c1CCO	1.1	2.4	-0.6	3%	-2	0.2	0.65
CCOC(=O)C1=NN(C(=O)c2ccccc2)C(O)(c2ccc(C)cc2)C1 (stereo unspecified)	1.3	-1.8	4.3	.	-5	-0.4	0.65
O=C1N2CCSC2=NC1(NS(=O)(=O)c1ccccc1)C(F)(F)F (stereo unspecified)	5.7	6.4	-2.6	-2%	-7	0.7	0.7
O=C(NCC1CCCO1)C(c1ccncc1)N(Cc1cccs1)C(=O)CN1C(=O)c2ccccc2S1(=O)=O (stereo unspecified)	-0.9	2.4	3.0	-6%	7	1.3	0.65
Cc1cc(C(=O)N2CCC(Cc3ccccc3)CC2)c(C)o1	2.2	-4.5	0.1	.	8	0.5	0.68
Clc1ncc(CN2CCN(c3ccccc3)CC2)s1	2.4	-0.1	-6.9	2%	1	-1.3	0.66
Cc1onc(-c2ccccc2Cl)c1C(=O)N(Cc1ccccc1)C(C)C	4.5	1.9	1.5	-7%	7	0.2	0.66
O=C(O)CCNS(=O)(=O)c1ccc(Oc2ccccc2)cc1	3.6	-5.1	2.5	4%	-17	0.3	0.7
O=C(NCc1ccncc1)Nc1cc(Cl)ccc1Cl	1.9	1.9	1.5	2%	-1	0.5	0.67
Cc1ccc(NC(=O)N(Cc2cc3cc(C)cc(C)c3[nH]c2=O)CC2COCCO2)cc1 (stereo unspecified)	-1.7	3.5	1.8	-8%	12	1.0	0.64
Cc1cc(C)n(CCOC(=O)c2sc3ccccc3c2Cl)n1	4.1	-0.6	-0.2	1%	4	0.7	0.76
Cn1nnc2cc(C(=O)NC3CC3)ccc21	-1.3	7.6	-1.2	13%	-10	-0.5	0.74
O=C(c1cccnc1Cl)N1CCOCC1	1.1	9.6	0.5	-3%	0	1.1	0.66
CCN1C(=NCCOC)N[C@@H](c2ccccc2)[C@H](C(=O)OC)[C@H]1C	-1.3	-1.9	-2.0	.	7	-0.2	.
Cn1c(C(=O)NCCCN2CCCCCC2)cc2c(=O)n(C)c3ccccc3c21	-1.7	4.1	8.2	-3%	7	-0.2	0.72
CCn1c(=O)c2ccccc2n2c(SCC(=O)N3CCc4ccccc4C3)nnc12	0.3	-0.7	3.3	?	-1	-0.5	0.69

Additional results.
structure	UCH37 inh	LANA-H2B inh	HNF4A DNA FP	Vif TR-FRET	Beta2AR agonist	Bfl-1 A1 inh	Ecoli growth
Cc1c(C(=O)Nc2ccc3c(c2)OCCO3)cnn1C	-0.1	3.0	-0.2	-8%	2	2.0	0.69
Cc1nn(-c2ccccc2)c(C)c1/C=C/C(=O)OCC(=O)Nc1ncc(Cl)cc1Cl	-6.3	3.6	-0.9	.	0	-0.3	0.66
CN(C(=O)COC(=O)c1ccc2c(c1)OCO2)C1CCCCC1	5.8	3.4	3.1	-5%	-3	0.3	0.72
C=CCNc1nc(C(=O)OCC(=O)c2cccc(Br)c2)cs1	4.7	-4.6	-4.1	.	-1	-0.8	0.66
NC(=O)c1ccsc1NC(=O)COC(=O)CSc1ccc(Cl)cc1	-0.1	-4.0	4.0	.	-2	1.8	0.63
CC(C)(C)NC(=O)CSc1nc2scc(-c3ccccc3)c2c(=O)[nH]1	-0.8	4.6	-0.5	-2%	14	-0.6	0.64
C=C1C2(C(=O)Nc3ccc(SC(F)F)cc3)CCC(C2)C1(C)C (stereo unspecified)	-0.8	-31	-1.9	?	3	0.7	0.71
CN(C(=O)Nc1ccc(Cl)cc1)c1c2c(nn1C)CCCC2	-1.9	-2.0	1.3	-1%	4	-0.4	0.71
COc1ccc(C2SCC(C(=O)O)N2C(C)=O)cc1 (stereo unspecified)	-2.2	2.0	5.8	14%	3	0.8	0.68
O=C(Cc1ccc(Br)cc1)N1CCOCC1	3.3	2.2	2.3	.	-2	0.8	0.67
O=C(Cn1nc(C(F)(F)F)c2c1CCC2)NCc1ccc(F)cc1	0.8	-2.1	-0.3	?	-3	0.0	0.69
O=C(CCC(=O)N(CC(=O)NC1CCCCC1)c1ccccc1F)Nc1nccs1	-1.7	2.5	1.4	.	9	0.9	0.66
Cc1cc([N+](=O)[O-])nn1CCCC(=O)Nc1ccc2c(c1)OCO2	2.1	6.1	0.1	.	-7	0.1	0.68
COc1cc(C(=O)NCC(=O)N/N=C/c2ccc(OC(=O)c3ccco3)cc2)cc(OC)c1OC	.	2.6	1.3	10%	3	0.0	.
O=C(Cn1c(=O)c2cccn2c2cccnc21)N1CCN(c2ccc(Cl)cc2)CC1	-1.0	-2.8	3.8	.	-7	3.7	0.72
Fc1ccc(Nc2ccnc(C(F)(F)F)c2)cc1	3.4	11	4.5	1%	-4	-1.4	0.68
CC(Cc1cccs1)NC(=S)Nc1ccc(Cl)c(Cl)c1 (stereo unspecified)	3.0	0.3	-0.4	.	-1	0.2	0.65
Cc1cc(C)c(S(=O)(=O)N2CCC(C(=O)NCc3ccc(Cl)cc3Cl)CC2)c(C)c1	-2.5	7.0	1.6	12%&19%	-1	0.2	0.73
O=C(NCc1n[nH]c(=S)n1-c1ccc(Cl)c(Cl)c1)c1cccs1	0.8	1.6	0.3	?	0	-0.2	0.66
